Screens as filed in PubChem BioAssay.
LANA-H2B inh: blocks KSHV LANA binding to histone H2A/H2B; inhibition, % (test concentration not listed); cell-free LANA-H2A/H2B peptide, fluorescence polarization; AID 2629; Q9QR71; hit rate 0.6% among 320,000; in the data active = inhibition mostly above about 10%, no sharp cut-off; inactive = mostly below about 6.7%;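 note: stock transfer was 7.5 nL into about 10 µL; 0% = median of vehicle wells and 100% = median of positive control wells; one replicate is shown; the record names a cut of 25% in any replicate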
RanGTP-Impb inh: inhibitors of RanGTP-importin-beta interaction, primary screen, biochemical, FRET, CFP-Ran, YFP-importin-beta, homogeneous | inhibition, % (no concentration beside the values) | cell-free CFP-Ran/YFP-importin-beta FRET ratio | hit rate 1.1% among 300,000;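 active = most replicates above 15%; inconclusive = exactly half above 15%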;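 note: 0% = DMSO wells and 100% = Ran loaded with GDP instead of GTP; wells of about 40 µL received 100 nL stock; the first replicate is given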
Beta2AR agonist: agonists of human beta-2 adrenergic receptor inducing internalization; hit rate 0.43% among 340,000; response, % (no concentration beside the values); Am2.2-beta2AR cells, FAP receptor internalization, flow cytometry; reference of the scale not given here; P07550;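 active = response above a set limit, near 3 SD of response in nonfluorescent compounds, cut at about 42% in these data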;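 note: stock transfer was 100 nL into about 11 µL; a reference agonist was the positive control; negative values mostly stem from fluorescent compounds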
Target sequence (P07550 whole entry, looked up): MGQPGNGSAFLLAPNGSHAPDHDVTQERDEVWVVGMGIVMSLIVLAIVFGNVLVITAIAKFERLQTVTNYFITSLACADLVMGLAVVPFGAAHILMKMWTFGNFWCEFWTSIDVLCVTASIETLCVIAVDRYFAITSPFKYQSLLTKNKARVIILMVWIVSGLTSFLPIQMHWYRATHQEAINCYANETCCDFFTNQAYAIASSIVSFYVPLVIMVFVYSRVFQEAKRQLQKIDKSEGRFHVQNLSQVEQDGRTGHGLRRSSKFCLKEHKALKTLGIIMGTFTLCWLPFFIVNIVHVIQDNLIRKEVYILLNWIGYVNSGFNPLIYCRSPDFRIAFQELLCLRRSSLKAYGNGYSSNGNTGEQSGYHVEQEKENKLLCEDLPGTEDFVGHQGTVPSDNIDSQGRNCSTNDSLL
ALR H2O2 inh: blocks human ALR sulfhydryl oxidase activity | P55789 | purified ALR, DTT oxidation, H2O2 HRP-luminol luminescence | inhibition, % (no concentration beside the values) | hit rate 3.8% among 290,000 | AID 485317;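 active = mean and each replicate at 75% or more; inconclusive = only one of the two met; inactive = neither met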;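 note: stock transfer was 7.5 nL into about 7.5 µL; 0% = neutral wells and 100% = wells with inactivated enzyme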
Target sequence (P55789 whole entry, looked up): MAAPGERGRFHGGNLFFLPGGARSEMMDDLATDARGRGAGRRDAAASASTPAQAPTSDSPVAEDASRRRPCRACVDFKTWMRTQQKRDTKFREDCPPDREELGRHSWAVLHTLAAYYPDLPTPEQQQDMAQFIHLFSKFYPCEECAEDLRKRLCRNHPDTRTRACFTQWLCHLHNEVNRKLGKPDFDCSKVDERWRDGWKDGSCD
Vif A3G: inhibitors of Vif binding to APOBEC3G peptide, primary screen, biochemical, TR-FRET, GST-Vif 1-94, biotin-A3G peptide, dose response retest (AID 1117319); TR-FRET GST-Vif / biotin-A3G peptide binding; higher % means a stronger effect; test concentration not given here; strong numbers were not always called active; one-dose inhibition, %; IC50 in µM for titrated hits; hit rate 0.57% among 260,000;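 active = above the screen mean plus three standard deviations and confirmed in dose response; inconclusive = results disagree or hit not tested in dose response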;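 note: Vif residues 1-94 fused to GST binding biotinylated APOBEC3G peptide 110-148; 0% = full assay without inhibitor and 100% = GST in place of GST-Vif; retest series ran down from 100 µM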
HNF4A DNA FP: change in binding of human HNF4 alpha to DNA; P41235; HNF4a-FITC DNA binding, fluorescence polarization, 1 h; activity change, % at 10 µM; hit rate 0.3% among 360,000; AID 1224865; in the data active = activity change above about 30%, passing the limit was not always enough;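 note: controls were the assay level and a saturating level of protein; the project sought stronger binding though the title names inhibitors; some compounds called inactive have numbers as strong as hits; positive values seem to mean higher polarization but the record does not say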
Target sequence (P41235 whole entry, looked up): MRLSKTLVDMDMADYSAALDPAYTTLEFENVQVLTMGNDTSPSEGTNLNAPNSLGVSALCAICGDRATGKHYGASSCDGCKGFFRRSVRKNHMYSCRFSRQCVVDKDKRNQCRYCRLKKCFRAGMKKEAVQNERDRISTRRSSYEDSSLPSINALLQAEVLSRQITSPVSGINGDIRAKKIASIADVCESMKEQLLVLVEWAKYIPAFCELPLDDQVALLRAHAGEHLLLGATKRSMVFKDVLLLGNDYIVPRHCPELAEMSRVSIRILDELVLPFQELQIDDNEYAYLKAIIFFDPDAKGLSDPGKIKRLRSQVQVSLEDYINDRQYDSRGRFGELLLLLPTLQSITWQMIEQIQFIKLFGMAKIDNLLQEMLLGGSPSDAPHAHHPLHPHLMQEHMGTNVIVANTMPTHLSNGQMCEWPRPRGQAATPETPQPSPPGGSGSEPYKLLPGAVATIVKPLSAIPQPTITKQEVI
Calb FLC: affects C. albicans growth with fluconazole; growth inhibition, % (concentration not given with the values); hit rate 0.57% among 300,000; C. albicans CaCi-2 (fluconazole-resistant clinical isolate) + fluconazole, Alamar Blue growth, 48 h; AID 1979;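 active = most replicates above 75%; inconclusive = exactly half above 75%; inactive = most below 75%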;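 note: all wells also contain fluconazole at 8 µg/ml as a sub-toxic cotreatment; 0% = median of DMSO wells and 100% = median of geldanamycin control wells; wells of about 8 µL received 7.5 nL stock; the first replicate is given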
Active calls of the source: *; ? = inconclusive; · = not tested or not shown; & = joins results of further samples.

SMILES	LANA-H2B inh	RanGTP-Impb inh	Beta2AR agonist	ALR H2O2 inh	Vif A3G	HNF4A DNA FP	Calb FLC
Cc1ccc2c(c1C)NC(=O)CC(c1ccccc1O)=N2	-1.6	-3.6	-3	·	-69%	3.3	5
CCCCc1cc(=O)oc2cc(C)c(CN3CCCC3)c(O)c12	4.3	-6.8	18	-13	?	-4.5	14
Cc1ccc(-n2nc3c(c2NC(=O)c2ccc4c(c2)OCO4)CS(=O)(=O)C3)c(C)c1	-1.0	0.4	5	1	15%	4.9	-11
Cc1ccc(C)c(NC(=O)CCN2CCCCC2)c1	-2.9	-1.3	-5	-3	·	0.7	-8
CC1(C)O[C@@H]2C[C@H]3[C@@H]4CCC5=CC(=O)C=C[C@]5(C)[C@@]4(F)[C@@H](O)C[C@]3(C)[C@]2(C(=O)CO)O1	3.1&-9.4	·	-2	9	28%	1.1	·
CCNc1nc(-c2cc3ccccc3o2)cs1	-5.0	?	20	10	30%	3.2	1
CCOC(=O)C(O)(CC(=O)c1ccc(OC)cc1)C(F)(F)F (stereo not given)	3.4	0.1	5	2	·	-2.2	?
Clc1cc2nc(-c3cccnc3Cl)[nH]c2cc1Cl	3.3	-0.7	-7	·	-18%	-0.5	-2
Cc1ccc(NC(=O)CSc2nnc(-c3ccoc3C)n2CCCN(C)C)cc1Cl	2.6	6.8	-9	-24	·	-0.2	11
O=C(O)c1ccc(/C=N/NC(=O)C2CC2(c2ccccc2)c2ccccc2)cc1 (stereo not given)	-2.3	2.5	·	-10	·	·	7
Clc1cccc(Cl)c1CSc1nnc2ccccn12	-1.5	3.2	-3	1	·	-0.8	-5
COC(=O)c1cn(NC(=O)c2ccncc2)c(=O)c2ccccc12	2.5	4.6	12	-3	?	0.9	13
CCC(=O)NC(=S)Nc1ccc(NC(=O)c2ccc([N+](=O)[O-])cc2)cc1	0.8	1.7	0	-11	·	-1.8	-10
O=C(Nc1cccnc1Cl)c1cc2c(s1)-c1ccccc1OC2	3.7	2.4	-1	2	·	1.6	6
Cc1nnc(NC(=O)CSc2nnc(CC(=O)Nc3ccccc3F)n2C)s1	-0.7	2.1	-1	-6	·	0.7	0
COc1ccc(OC)c(C2SCCN2S(=O)(=O)c2cccc(C(F)(F)F)c2)c1 (stereo not given)	-1.0	2.1	1	-13	0%	-0.7	8
Cn1nnc(NCc2cc(Br)ccc2OCc2cccs2)n1	1.3	?	-14	-1	-1%	-0.8	7
CC(C)NC(=O)CSc1nc(Cc2cccs2)nc2ccccc12	-0.6	3.5	-28	40	23%	2.8	2
Cn1nc(C(=O)Nc2cccc(S(=O)(=O)N3CCOCC3)c2)c2ccccc2c1=O	·	·	3	-3	-4%	1.3	·
Cn1c(CNC(=O)CCNC(=O)c2ccccc2)cc(=O)n(C)c1=O	-1.6	0.0	9	0	·	-2.7	·
O=C(Oc1cccc(-n2cnnn2)c1)C1CCCCC1	-2.6	·	1	64	1%	8.9	5
O=C(Cn1nc(-c2ccc3c(c2)OCCO3)ccc1=O)Nc1ccc(N2CCOCC2)cc1	-4.0	0.6	·	-3	?	·	-1
CC(=O)c1cccc(S(=O)(=O)Nc2ccc3nc(C)sc3c2)c1	2.2	-0.8	0	-12	·	-0.1	9
Cc1ccccc1C(=O)NC1CCN(CC(=O)Nc2ccccc2Cl)CC1	-1.7	0.0	-1	18	·	0.2	-5
Cc1ccccc1-c1nc(CS(=O)(=O)CC(=O)NCCc2ccccc2)c(C)o1	-4.2	1.6	-6	-8	-11%	-1.7	9
NC(=O)NC(=O)COC(=O)/C=C/c1cccc(Br)c1	-2.4	6.2	6	-3	-12%	4.1	1
CCn1c(COc2cccc(OC)c2)nnc1SCC(=O)Nc1ccccc1C(=O)OC	0.5	·	10	-41	1%	-0.7	11
CN(C)C(=O)COC(=O)c1cccc(S(=O)(=O)N2CC3(C)CC2CC(C)(C)C3)c1 (stereo not given)	0.6	·	1	-1	5%	3.7	·
O=C1N/C(=C/c2ccsc2)C(=O)N1c1ccccc1	-4.5	0.5	-2	-1	0%	1.2	-7
Cc1cc(C(=O)COC(=O)C2CC2)c(C)n1-c1ccc(F)cc1	2.1	-1.6	-2	1	8%	0.2	-6
CCOC(=O)c1cccc(C2=CC(=O)CC(C)(C)C2)c1	5.3	·	-4	2	·	1.0	·
Cc1cccc(C)c1NC(=O)CNC(=O)c1cccc(S(=O)(=O)NCc2cccs2)c1	-3.6	·	-2	·	·	-0.6	·
COc1ccccc1NC(=O)CN(c1ccccc1OC)S(=O)(=O)c1ccccc1	4.1	-1.1	1	-8	66%	0.4	17
Cc1ccccc1NCC(=O)N=Nc1c(O)[nH]c2ccc([N+](=O)[O-])cc12	0.9	-1.2	7	1	11%	-0.7	0
CN(C)S(=O)(=O)c1ccc2c(c1)nc(CCC(=O)NCc1ccc(Cl)cc1)n2C	0.4	4.5	-3	-2	·	3.6	6
CCOC(=O)[C@H]1[C@H]2COc3cc(OC)ccc3[C@@H]2N2C(=O)c3cc(OC)ccc3NC(=O)[C@@]12C	2.6	·	-2	-4	·	-8.8	·
COc1ccc2ccccc2c1CN1CCSCC1	3.0	4.2	-2	-5	·	4.8	1
O=C(Nc1ncc(Cc2cccc(Cl)c2Cl)s1)C1CCCO1 (stereo not given)	4.4	4.1	2	-2	5%	1.1	-6
COc1ccc(-c2cc(C(F)F)n3ncc(C(=O)N4CCCc5ccccc54)c3n2)cc1	5.4	·	-5	-1	2%	1.3	?
Clc1ccc(OCc2cnc(Cl)s2)cc1	-0.5	0.5	6	-10	21%	-3.8	-22

Looked up by compound from the list above:
SMILES	LANA-H2B inh	RanGTP-Impb inh	Beta2AR agonist	ALR H2O2 inh	Vif A3G	HNF4A DNA FP	Calb FLC
O=C1N/C(=C/c2ccsc2)C(=O)N1c1ccccc1	-4.5	0.5	-2	-1	0%	1.2	-7
Cc1ccccc1C(=O)NC1CCN(CC(=O)Nc2ccccc2Cl)CC1	-1.7	0.0	-1	18	·	0.2	-5

More records follow:
SMILES	LANA-H2B inh	RanGTP-Impb inh	Beta2AR agonist	ALR H2O2 inh	Vif A3G	HNF4A DNA FP	Calb FLC
Cc1[nH]c2ccc(OC(F)(F)F)cc2c1CCN1C(=O)c2ccc(C(=O)O)cc2C1=O	-5.8	2.7	26	18	5%	4.8	0
Cc1ccc2sc(C)[n+](CCC(C)S(=O)(=O)[O-])c2c1 (stereo not given)	·	2.4	0	·	30%	-0.6	-6
CCn1c(CNC(=O)c2cccc(C)c2)nc2ccccc21	-2.7	0.8	5	-18	22%	-1.3	-3
C=C(C)Cn1c(SCC(=O)N/N=C/c2ccccc2OCC(=O)O)nnc1-c1ccc(Br)cc1	2.2	3.6	-4	·	11%	-4.3	5
N#Cc1cnn(-c2nc(SCc3ccccc3)nc3sc4c(c23)CCCC4)c1N	3.9	?	-1	·	-10%	-1.5	-4
Cc1cc(C)nc(SCCn2c(N3CC(C)OC(C)C3)nc3c2c(=O)n(C)c(=O)n3C)n1 (stereo not given)	3.1	3.6	-7	0	·	1.9	-1
CCS(=O)(=O)c1ncc(Cl)c(C(=O)Nc2ccc(C)cc2)n1	0.2	2.5	0	26	·	-3.0	2
CN(C)C1=NC[C@H](Cc2ccccc2)N1CC1CCC(C(C)(C)C)CC1 (stereo not given in full)	0.3	-0.3	5	1	·	0.1	-18
O=c1c2[nH]c3ccc(F)cc3c2ncn1CCN1CCN(Cc2ccccc2)CC1	1.6	-5.7	-15	3	-3%	1.8	-3
O=C1CCCc2nc3c(cc21)C(O)Oc1ccccc1-3 (stereo not given)	0.0	?	7	-11	4%	-3.0	10
CN(CC(=O)Nc1ccc(F)cc1)C(=O)CN1C(=O)NC2(CCCc3ccccc32)C1=O (stereo not given)	2.5	-4.0	-1	-10	·	-1.0	57
CCOC(=O)C1(Cc2ccccc2)CCN(C2Cc3ccccc3C2)CC1	4.0	1.0	-9	-8	·	-0.8	-12
Cc1cc(-c2ccccc2)nc(=O)[nH]1	-1.4	-5.0	0	-3	4%	-24	?
CC(=O)Cc1nnn(-c2cc(C)on2)n1	1.3	6.8	·	5	·	·	-3
CC(=O)c1ccc(NC(=O)C(C)NCc2ccc(Cl)cc2)cc1 (stereo not given)	-0.5	5.0	-12	-9	0%	2.3	-1
CCOc1cccc(-c2c(C(=O)N/N=C/c3ccc(C)o3)nnn2-c2nonc2N)c1	-3.3	-1.0	-6	3	·	3.4	-4
CCOC(=O)C(CC(=O)c1ccccc1)CC(=O)c1ccccc1	7.9	-1.9	3	-2	2%	2.4	4
O=[N+]([O-])c1ccc(C(O)CN2CCN(c3ccccc3)CC2)cc1 (stereo not given)	2.2	4.8	3	7	2%	1.6	1
CCC1Oc2ccc(C)cc2N(CC(=O)N(Cc2cccnc2)Cc2ccc(C)o2)C1=O (stereo not given)	2.7	0.6	5	0	3%&0%	-2.1	5
CCc1[nH]nc2c1C(c1ccncc1)C(C#N)=C(N)O2 (stereo not given)	8.5	3.4	0	12	1%	-0.1	-16
NN=C(c1ccccc1)c1ccccc1	-9.1	0.9	-3	-4	·	0.0	0
O=c1[nH]nc(-c2cccs2)c2ccccc12	0.8	-4.5	-3	-12	0%	2.1	4
COc1cc(/C=N/NC(=O)/C(=C/c2ccccc2)CCO)ccc1O	-2.1	0.1	-5	99*	·	1.0	24
O=Cc1cn(CC(=O)N2CCCCC2)c2ccccc12	1.6	-2.1	12	-26	-9%	1.1	4
Cc1ccc(S(=O)(=O)N2CCN(C(=O)C3=COCCO3)CC2)cc1C	1.4	-4.4	5	-11	3%	-0.6	-3
COc1cccc(Sc2ccccc2CN(C)C)c1	8.3	-0.7	-7	-7	9%	-1.4	-18
Cc1nn(-c2ccccc2)c(C)c1C(=O)NCCc1ccc(Cl)cc1	3.4	3.1	-6	-4	·	2.7	38
Cc1cccc(CCNS(=O)(=O)c2ccc3c(c2)CCN3C(=O)CCC(=O)O)c1	-4.9	2.0	-1	1	·	-3.9	1
Clc1ccc(CN(Cc2ccc(Cl)cc2)c2nn[nH]n2)cc1	-4.5	0.9	6	31	-3%	0.2	31
COc1cccc(CNS(=O)(=O)c2ccc(-n3cnnn3)c(C)c2)c1	0.6	3.6	-2	2	-3%	-1.3	5
C/C(=N\NC(=O)COc1c(C)cccc1C)c1cccs1	-2.2	?	-6	-7	-1%	-0.4	5
CCCCCCn1c(SCC(=O)OC)nc2c1c(=O)[nH]c(=O)n2C	-1.5	2.1	1	·	12%	3.9	15
O=c1cc(-c2ccco2)oc2ccc(Cl)cc12	·	3.7	-5	·	-13%	-1.6	0
Cc1cccc(NC(=O)C2CCN(S(=O)(=O)c3cccc4cccnc34)CC2)c1	-3.6	-1.4	0	88*	-68%	2.1	-8
COc1ccc(S(=O)(=O)N2CCN(C(=O)c3cc4c(s3)CCC4)CC2)cc1	5.7	·	-3	-4	41%	-73	·
CC(C)[C@H](NC(=O)c1ccccc1)C(=O)Nc1cccc(S(=O)(=O)N2CCOCC2)c1	2.8	·	-2	5	·	-2.2	·
N#Cc1ccsc1NC(=O)CCN1CCN(C(c2ccccc2)c2ccccc2)CC1	-15	1.4	11	-1	·	-3.9	-1
COCCn1c(SCC(=O)NCC2CCCO2)nc2c([nH]c3ccccc32)c1=O (stereo not given)	-1.0	·	-9	0	-8%	-1.9	·
Cc1onc(-c2ccccc2Cl)c1C(=O)Nc1nnc(-c2cccc([N+](=O)[O-])c2)s1	0.8	-0.3	5	57	3%	3.6	45
CC(=O)Oc1cc2oc(=O)c3c(c2cc1Cl)CCC3	2.5	11	-2	37	-3%	-2.2	?
c1cnc2nc3c4ccccc4c4ccccc4c3nc2c1	·	·	-170	·	2%	29	·
